# Assay outcomes as filed in PubChem BioAssay.
# gsp antag – gsp mutant antagonism; AID 624288; gsp-mutant cells, cAMP HTRF, 30 min; control for the full effect not named in the record; 340,000 compounds, 0.4% hits; Potency, µM (series often up to 76.9 µM), for inactives: at the highest dose activity change, negative = inhibition, hits mostly inhibitors; active = falling curve of any shape with a large fitted effect; inconclusive = falling curve, mostly with a smaller effect; inactive = flat or rising curve; cell line not stated here;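 also: intracellular cAMP measured with PDE inhibitor Ro 20-1724 present during compound exposure; potency is read from the fitted curve at half-maximal effect; % is scaled to controls: 0 for no effect and ±100 for the full control effect; nearly all actives have a fitted effect of over 65% in size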
#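 HTRF cAMP measurement after 30 min RT detection following 30 min, 37C compound treatment alongside […] (added as 300 uM solution) in G418-selected cells seeded at 2000/well and grown 16–24 h.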
# TRPV1 PAM – potentiators of human vanilloid receptor 1 (TRPV1). TRPV1-expressing cells, Fluo-8 calcium influx, capsaicin EC20 potentiation; host cell line not named in the record; control for the full effect not named in the record. AID 540277. potentiation, % at 8.33 µM. 320,000 compounds, 0.02% hits; active means potentiation above 80%; inconclusive means 30% to 80%; inactive means below 30%; also: 0% is about no effect
# Target sequence (Q8NER1 whole entry, looked up): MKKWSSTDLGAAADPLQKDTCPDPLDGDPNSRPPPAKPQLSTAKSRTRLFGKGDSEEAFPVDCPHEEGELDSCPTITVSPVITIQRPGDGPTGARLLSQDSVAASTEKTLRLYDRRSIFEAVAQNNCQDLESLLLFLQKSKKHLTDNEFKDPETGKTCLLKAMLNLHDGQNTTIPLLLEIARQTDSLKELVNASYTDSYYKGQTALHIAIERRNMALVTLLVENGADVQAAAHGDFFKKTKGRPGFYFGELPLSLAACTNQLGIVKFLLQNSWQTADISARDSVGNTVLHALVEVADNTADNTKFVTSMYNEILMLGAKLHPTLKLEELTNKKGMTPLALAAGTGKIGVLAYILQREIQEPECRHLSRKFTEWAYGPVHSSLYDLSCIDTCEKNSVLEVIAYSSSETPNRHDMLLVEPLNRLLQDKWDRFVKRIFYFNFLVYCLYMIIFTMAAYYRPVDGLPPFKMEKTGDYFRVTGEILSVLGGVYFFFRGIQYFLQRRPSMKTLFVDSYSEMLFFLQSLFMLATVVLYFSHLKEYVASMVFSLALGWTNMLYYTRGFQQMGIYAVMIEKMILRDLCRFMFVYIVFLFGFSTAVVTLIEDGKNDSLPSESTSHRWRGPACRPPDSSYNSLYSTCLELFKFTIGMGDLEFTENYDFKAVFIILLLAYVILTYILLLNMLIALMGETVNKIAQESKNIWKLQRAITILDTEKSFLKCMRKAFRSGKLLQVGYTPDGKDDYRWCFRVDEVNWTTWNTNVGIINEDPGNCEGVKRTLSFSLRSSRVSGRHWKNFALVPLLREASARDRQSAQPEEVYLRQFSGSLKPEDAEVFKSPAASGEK
#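 Fluo-8 calcium influx in TRPV1-expressing cells, kinetic read (ex 480/em 520 nm). Compound added and read 3 min for agonist activity, followed by capsaicin at EC20 final and 2 min further read for enhancement.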
# Sfp inh – Sfp phosphopantetheinyl transferase inhibition. Biochemical Sfp PPTase activity, qHTS. Potency, µM, for the others: max response, negative = inhibition, usual class: inhibitors. 310,000 compounds, 3.5% hits; active = well fitted inhibition curve with a large enough effect; inconclusive = small, poorly fitted or top-dose-only effect, or another doubt; inactive = no such curve, though single readings can be large or run the other way;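 also: the enzyme is Sfp with the accession as filed and its product quenches rhodamine fluorescence; potency is read from the fitted curve at half-maximal effect; 0% = enzyme reaction without inhibitor and -100% = no enzyme wells; top concentration of the series not given in the record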
#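 Step 1, compound plus 15 nM Sfp-PPTase, 15 min, room temperature. Step 2, add rhodamine-CoA (5 uM) and BHQ-2-YbbR (12.5 uM). Step 3, read 525/598 nm fluorescence at 0 and 30 min.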
# CtBP-E1A blk – CtBP/E1A binding inhibition; activity change, % (concentration not given with the values); 340,000 compounds, 0.49% hits; AlphaScreen GST-E1A/His-CtBP binding, 1536-well; hits give low values; control for the full effect not named in the record; in the data active means activity change below about -65%; inconclusive means about -30% to -65%; inactive means above about -30%; also: % is scaled to controls: 0 for no effect and ±100 for the full control effect
#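 AlphaScreen with 125 nM GST-E1A and 125 nM His-CtBP (5X stocks) in Tris pH 8.0, 300 mM NaCl, BSA, Tween 20, TCEP. Compounds preincubated 2 h at 37 deg C, then glutathione donor/nickel acceptor beads added for 1 h at 37 deg C in dark.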
# gsp ag – gsp mutant agonism; gsp mutant cells, cAMP HTRF, 30 min; control for the full effect not named in the record; Potency, µM (doses to about 76.9 µM), without a hit: at the highest dose activation (cAMP increase), usual class: activators; 340,000 compounds, 0.13% hits; active = well fitted activation curve with a large enough effect; inconclusive = small, poorly fitted or top-dose-only effect, or another doubt; inactive = no such curve, though single readings can be large or run the other way; cell line not stated here;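 also: phosphodiesterase inhibitor Ro 20-1724 added with compounds to block cAMP breakdown; potency is read from the fitted curve at half-maximal effect; nearly all actives have a fitted effect of over 60% in size; about a fifth of the inactives were tested at one dose only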
#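 Cells in DMEM/10% FBS with G418 were pretreated with compounds in DMSO plus […] (300 uM stock) for 30 min at 37C. cAMP was measured by HTRF (cAMP-d2 plus anti-cAMP antibody-K) after 30 min at room temperature.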
# Menin MLL FP FL – menin-MLL binding inhibition, fluorescein peptide; 290,000 tested, under 10 active; Fluorescence polarization, fluorescein-MLL peptide displacement from menin; AID 1766; FP activity change, % at 61.4 µM; inconclusive = falling polarisation curve, or a change in total fluorescence; inactive = total fluorescence flat and polarisation flat or rising; no compound was filed as active; the % refers to the polarisation; negative = inhibition;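 also: % of control where 0% means no effect; inhibitors lower the polarisation; unlabelled MLL peptide was the positive control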
# ClpP mod – qHTS Assay for Activators of ClpP | Potency, µM (doses to about 57.5 µM), inactives show at the highest dose activity change, negative = active | 340,000 compounds, 1.9% hits | ATP-dependent Clp protease proteolytic subunit (Bacillus subtilis (strain 168)), P80244 | purified B. subtilis ClpP, FRET peptide cleavage, 20 min; active = well fitted falling curve with a large enough effect; inconclusive = small, poorly fitted or top-dose-only effect; inactive = no such curve, though single readings can be large or run the other way; also: potency is read from the fitted curve at half-maximal effect; the source files actives as falling curves though it sought activators and does not explain the sign; nearly all actives have a fitted effect of over 65% in size; many hits overshoot -100%
# Target sequence (P80244 whole entry, looked up): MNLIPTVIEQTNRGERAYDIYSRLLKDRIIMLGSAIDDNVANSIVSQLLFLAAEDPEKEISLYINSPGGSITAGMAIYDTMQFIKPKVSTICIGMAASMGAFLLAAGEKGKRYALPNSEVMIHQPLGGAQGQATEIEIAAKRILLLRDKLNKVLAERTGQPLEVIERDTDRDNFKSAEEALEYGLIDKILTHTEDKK
#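 ClpP 10 microg/mL final, pH 8 Tris/KCl buffer with BSA, glycerol, Tween-20; compound pinned in; FRET-FV substrate; RT 20 min; Ex320/Em430; ΔFRET vs ADEP 5.8 microM, DMSO, no enzyme.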
# * hit, by the source's call; ? = inconclusive; / = not tested or not shown; & = joins results of further samples; ! = not confirmed by another sample; [ ] = dose if it differs, or a comment.
SMILES,gsp antag,TRPV1 PAM,Sfp inh,CtBP-E1A blk,gsp ag,Menin MLL FP FL,ClpP mod
O=C(Cn1cc(C(F)(F)F)ccc1=O)N/N=C/c1cccc(Cl)c1Cl,12%,19,?,0,-2%,5.5,-0.4%
CCCCC(C(=O)NC1CCCC1)N(Cc1ccco1)C(=O)Cn1nnc(-c2ccc(F)cc2)n1 (centres undefined),-5%,?,11%,-1,-39%[inhibitor],5.4,0.1%
CC(=O)N(c1ccc(Cl)cc1)c1nc(C)cc(C)c1C#N,5%,3,3%,4,14%[15.4 µM],1.8,/
Cc1nc2ncnn2c(C)c1CCC(=O)O,7%,-6,13%,3,-83%[inhibitor],-1.4,-1.3%
CCOc1ccccc1NC(=O)CN1CCC(NC(=O)c2ccccc2C)CC1,-22%,-1,4%,-1,2%[15.4 µM],1.7,/
Cc1ccc(S(=O)(=O)NCC(=O)N(CC(=O)NC(C)(C)C)Cc2ccc3c(c2)OCO3)cc1,-2%,-2,4%,4,14%[15.4 µM],-0.9,/
COc1ccc(C2CC(c3cccc(Br)c3)=NN2c2ccc(S(N)(=O)=O)cc2)cc1 (centres undefined),-13%,/,/,39,/,/,3.9%
Cc1ccc(C(C[N+](=O)[O-])c2c(C)[nH]n(-c3ccccc3)c2=O)cc1 (centres undefined),14%,3,-16%,-11,6%,/,1.0%
Cc1cc(NS(=O)(=O)c2ccc(NC(=O)COc3c(C)cc(Br)cc3C)cc2)no1,?,-8,-8%,2,8%[15.4 µM],1.3,-0.1%
CC(C)(C)c1cc(NC(=O)c2cccc(S(=O)(=O)N3CCOCC3)c2)no1,-4%,-7,-3%,-20,16%,6.8,1.3%
CN(C)C(=O)COn1c(SCC(=O)N(C)C)nc2ccccc2c1=O,10%,2,4%,4,1%,1.2,0.6%
O=C(Nc1cccc2ncccc12)c1ccco1,7%,-5,1%,1,0%,-1.2,/
COc1cccc(N(CC(=O)NCc2ccco2)C(=O)CCC(=O)Nc2nccs2)c1,?,-1,11%,-2,-12%[15.4 µM],1.6,/
CC(C#N)On1c(SC(C)C#N)nc2ccccc2c1=O (centres undefined),6%,-23,1%,0,-6%,1.3,-1.6%
CNC(=O)c1ccc(=O)n(Cc2cccc(C(F)(F)F)c2)c1,4%,3,14%,5,-31%[inhibitor],22,/
O=C(CN(Cc1ccc(Cl)c(Cl)c1)S(=O)(=O)c1ccccc1)N/N=C\c1ccc2c(c1)OCO2,-3%,3,16%,-9,-47%[inhibitor],2.5,-8.2%
Cc1c(C)c2cc(Cl)c(O)c(CN3CCCCC3)c2oc1=O,-1%,16,-5%,2,5%,0.7,?
O=C1CN(C(=O)COC(=O)C23CC4CC(CC(O)(C4)C2)C3)c2ccccc2N1,0%,-14,3%,9,3%,4.8,-1.9%
Cc1ccc(S(=O)(=O)N2CCC(C(=O)OCC(=O)N3CCC(C)CC3)CC2)cc1C,7%,-3,/,6,?,/,0.9%
CCc1nnc(NC(=O)Cc2c[nH]c3ccccc23)s1,14%,-4,8%,4,1%,0.9,0.8%
Oc1[nH]c2ccccc2c1N=NC(=S)NCC1CCCO1 (centres undefined),-3%,7,?,-5,-16%,3.1,-1.5%
CCn1c(SCC(=O)NC2CCCCC2C)nnc1-c1ccc(OC)cc1 (centres undefined),2%,-4,-2%,37,9%,0.5,1.4%
NC(=O)c1ccsc1NC(=O)CN1C(=O)NC2(CCCCC2)C1=O,12%,-4,/,-8,0%,/,-6.0%
Cc1nnc(SCC(=O)c2c(N)n(C)c(=O)n(C)c2=O)[nH]c1=O,8%,-5,3%,-73*,-1%,-0.1,2.2%
O=C(CSc1nnc2c(Cl)cc(C(F)(F)F)cn12)N(Cc1ccccc1)Cc1ccccc1,-27%,-7,4%,-10,-30%,5.5,?

# (listing goes on)
SMILES,gsp antag,TRPV1 PAM,Sfp inh,CtBP-E1A blk,gsp ag,Menin MLL FP FL,ClpP mod
COc1ccccc1CNS(=O)(=O)c1ccc(-n2cccn2)cc1,-3%,-12,15%,8,?,/,0.5%
COc1cc(/C=C(\C#N)C(=O)NCC2CCCO2)cc(OC)c1OC (centres undefined),4%,15,1%,-2,19%,3.2,/
C=CCn1c(SCC(=O)N2CCCCC2)nnc1-c1ccncc1,13%,-1,26%,2,-8%[15.4 µM],1.1,-0.9%
COc1ccc(OC)c(CN2CCN(C(=O)c3ccc(F)cc3)CC2)c1,-4%,10,-9%,-3,-45%[inhibitor],0.3,-2.6%
COCCCNC(=O)c1cc(Sc2nnc(C)s2)nc2ccccc12,-5%,3,12%,-2,0%[15.4 µM],3.2,/
COc1ccc(OC)c(Cc2nnc(CCC(=O)N3CCCCC3c3nccs3)o2)c1 (centres undefined),-5%,2,1%,/,-40%,-7.8,1.4%
CCCCC1=CC2=C(c3ccco3)C(=O)C(C)(OC(=O)c3ccc(OC)cc3)C(=O)C2=CN1C1CCCCC1 (centres undefined),-2%,?,56µM*!,?,/,?,-2.7%
Cc1ccc(CN2CC(C(=O)N(Cc3nnc(-c4ccccc4Cl)o3)C3CC3)CC2=O)cc1 (centres undefined),6%,-2,/,-3,-7%,/,0.6%
S=C(NN=C(c1ccccc1)c1ccccn1)N(Cc1ccccn1)Cc1ccccn1,-15%,/,/,4,-25%,/,-0.9%
COc1ccc(C2=NOC(c3nnc(-c4ccccc4)o3)C2)cc1 (centres undefined),5%,/,/,/,-17%,/,-0.3%
COC(=O)CNC(=O)C1CCN(S(=O)(=O)c2cnc[nH]2)CC1,8%,-8,10%,3,14%,/,-1.9%
CC(=O)NC(Cc1cccc(C)c1)C(=O)NC1CCN(S(=O)(=O)c2ccccc2)CC1 (centres undefined),9%,-4,4%,7,5%[15.4 µM],/,/
CCN1CCN(c2cc(C)c3cc(NC(=S)N(C)Cc4ccccc4)ccc3n2)CC1,19%,-1,7%,-11,?,2.2,34%
CC(/C=N/NC(=O)NC1CCCCC1)=C\c1ccccc1,-14%,-7,-7%,-1,-3%[15.4 µM],-1.2,/
Nc1ccc(S(=O)(=O)c2ccc(N)cc2)cc1,5%,-11,0%&23%&7%&18%,8,/,-3.0,-2.9%
O=C(N/N=C/c1cn(CC(=O)N2CCOCC2)c2ccccc12)c1cccnc1,5%,-7,15%,-12,?,1.1,/
CC(=O)Nc1ccc(S(=O)(=O)NCC(C)NS(=O)(=O)c2ccc(NC(C)=O)cc2)cc1 (centres undefined),4%,8,-3%,-3,7%,1.5,-1.2%
CCOC(=O)N1CCN(C(=O)CSCC(=O)Nc2nc(-c3ccc(C)cc3)cs2)CC1,32µM*,?,-15%,-10,-4%,15,-0.3%
CCOc1ccc(/C=C2\CCC(C3CCCC3)C2=O)cc1OC (centres undefined),-1%,-4,-1%,/,2%,-7.7,-3.8%
CS(=O)(=O)N1CCc2cc(C(=O)N3CCCCC3)ccc21,-9%,-6,0%,2,0%,-2.2,1.1%
CCC(=O)N1CCc2cc(Br)cc(S(=O)(=O)N3CCCCC3CC)c21 (centres undefined),-13%,-14,6%,-1,8%[15.4 µM],0.5,1.6%
CCC(=O)Nc1cccc(-c2cn3ccsc3n2)c1,-6%,1,5%,-1,1%,4.3,1.0%
CC(=O)Nc1ccc(S(=O)(=O)NC2Cc3ccccc3C2)cc1,15%,10,11%,6,-7%,-3.5,0.7%
COc1ccc(NC(=O)Nc2nnc(CC(=O)NCc3ccccc3)s2)cc1,9%,5,-17%,-12,6%,-1.2,-2.2%
COc1cccc(CNCc2ccc(OC)cc2OC)c1,-6%,-27,-14%,-3,-17%,4.2,0.5%

# More results.
SMILES,gsp antag,TRPV1 PAM,Sfp inh,CtBP-E1A blk,gsp ag,Menin MLL FP FL,ClpP mod
O=C(Oc1ccc(F)cc1)N1CCOCC1,3%,0,11%,/,-10%,-0.1,-0.2%
CC(C)(C)NC1=CC(=O)OC12CCCCC2,6%,-10,4%,7,-8%,0.0,0.0%
COc1cccc(N2CC(C)Cn3c2nc2c3c(=O)n(CCN3CCOCC3)c(=O)n2C)c1 (centres undefined),-2%,-6,7%,-24,-33%[inhibitor],5.2,-14%
O=C(C1CCN(S(=O)(=O)c2cccc3nsnc23)CC1)N1CCc2ccccc2C1,-14%,16,6%,-4,-46%[inhibitor],-3.0,-6.1%
O=C(c1ccc(-n2nc(C(F)(F)F)c3c2CCCC3)cc1)N1CCOCC1,-9%,-13,-2%,/,-5%,-1.4,-1.5%
C[C@H](O)[C@@H]1CN2CCc3c([nH]c4ccccc34)[C@@H]2C[C@@H]1N(C)Cc1cc(Cl)cc(Cl)c1,/,/,/,-8,-57%[inhibitor],/,-8.0%
O=C1C(C2=NC(c3ccccn3)C3C(=O)N(c4ccc(Cl)cc4Cl)C(=O)C23)=C(O)c2ccccc21 (centres undefined),-9%,5,26%,7,?,7.2,0.9%
COCCNC(=O)C(=O)Nc1cc2c3c(c1)CCC(=O)N3CCC2,-29%,5,19%,/,-38%[inhibitor],1.7,-0.3%
CSc1cccc(CNC(=O)C2CCC(=O)N(Cc3cccc(C(F)(F)F)c3)C2)c1 (centres undefined),5%,-8,12%,-14,-7%,6.5,0.3%
CC(=O)c1ccc(N2CCN(S(=O)(=O)c3ccc4c(c3)NC(=O)CC(=O)N4)CC2)cc1,-4%,4,23%,2,15%,/,-8.4%
Cc1ccc2nc(-c3ccc(Br)cc3)cc(C(=O)NCC3CCCO3)c2c1 (centres undefined),/,/,/,1,?,/,3.4%
Cc1c(C(=O)NNC(=O)c2csc(N3CCOCC3)n2)oc2ccc(Br)cc12,/,/,/,-1,-60%[inhibitor],/,-0.1%
COc1ccc(-c2nc(-c3ccccc3)c(-c3cccs3)[nH]2)cc1OC,-10%,1,7%,7,?,-0.6,28µM*
CCCCCCCc1nn2c(=O)cc(O)nc2s1,-25%,-2,-8%,23,6%,1.0,-5.1%
CCCCCn1c(=NC(C)=O)c(C#N)cc2c(=O)n3ccccc3nc21,-8%,5,20%,-3,23%,-0.5,4.2%
CCc1ccc(S(=O)(=O)NCC2(N3CCOCC3)CCCCC2)cc1,6%,-12,/,1,23%,/,1.3%
COc1ccc(OC)c(/C=N/NC(=O)c2[nH]ncc2Br)c1,1%,-1,3%,-3,-1%[15.4 µM],2.1,-3.7%

# Not a hit list; overall some 5.3% were active at least once.
